Screens (PubChem)
gsp antag: qHTS for Antagonists of gsp, the Etiologic Mutation Responsible for Fibrous Dysplasia/McCune-Albright Syndrome: qHTS; gsp-mutant cells, cAMP HTRF, 30 min; control for the full effect not named in the record; Potency, µM (titrated, usually from 76.9 µM), for inactives: at the top dose activity change, negative = inhibition, actives largely listed as inhibitors; 340,000 compounds, 0.4% hits; active = falling curve of any shape with a large fitted effect; inconclusive = falling curve, mostly with a smaller effect; inactive = flat or rising curve; cell line not stated here;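 also: intracellular cAMP measured with PDE inhibitor Ro 20-1724 present during compound exposure; potency is read from the fitted curve at half-maximal effect; % is scaled to controls: 0 for no effect and ±100 for the full control effect; nearly all actives have a fitted effect of over 65% in size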
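HTRF cAMP read-out (cAMP-d2 plus anti-cAMP antibody-K in lysis buffer, 30 min RT). Before lysis, cells are exposed to compounds with […] for 30 min at 37C in DPBS containing Ca/Mg, BSA and Tween 20.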
ClpP mod: qHTS Assay for Activators of ClpP; purified B. subtilis ClpP, FRET peptide cleavage, 20 min; Potency, µM (series often up to 57.5 µM), for inactives: at the top dose activity change, negative = active; 340,000 compounds, 1.9% hits; AID 651965, 2013; active = well fitted falling curve with a large enough effect; inconclusive = small, poorly fitted or top-dose-only effect; inactive = no such curve, though single readings can be large or run the other way; also: potency is read from the fitted curve at half-maximal effect; the source files actives as falling curves though it sought activators and does not explain the sign; nearly all actives have a fitted effect of over 65% in size; many hits overshoot -100%
Target sequence (P80244 whole entry, looked up): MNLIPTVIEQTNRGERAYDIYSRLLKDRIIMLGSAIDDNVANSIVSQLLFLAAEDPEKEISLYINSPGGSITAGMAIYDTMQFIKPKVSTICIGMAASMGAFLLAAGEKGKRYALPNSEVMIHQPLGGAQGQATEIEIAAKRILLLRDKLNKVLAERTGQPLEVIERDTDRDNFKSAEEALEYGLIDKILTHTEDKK
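ClpP 10 microg/mL final, pH 8 Tris/KCl buffer with BSA, glycerol, Tween-20; compound pinned in; FRET-FV substrate; RT 20 min; Ex320/Em430; ΔFRET vs ADEP 5.8 microM, DMSO, no enzyme.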
TRPV1 potentiator: HTS Assay for Compounds that Act as Potentiators of the Vanilloid Receptor 1; potentiation, % at 8.33 µM; 320,000 compounds, 0.02% hits; TRPV1-expressing cells, Fluo-8 calcium influx, capsaicin EC20 potentiation; host cell line not named in the record; control for the full effect not named in the record; active means potentiation above 80%; inconclusive means 30% to 80%; inactive means below 30%; also: 0% is about no effect
Target sequence (Q8NER1 whole entry, looked up): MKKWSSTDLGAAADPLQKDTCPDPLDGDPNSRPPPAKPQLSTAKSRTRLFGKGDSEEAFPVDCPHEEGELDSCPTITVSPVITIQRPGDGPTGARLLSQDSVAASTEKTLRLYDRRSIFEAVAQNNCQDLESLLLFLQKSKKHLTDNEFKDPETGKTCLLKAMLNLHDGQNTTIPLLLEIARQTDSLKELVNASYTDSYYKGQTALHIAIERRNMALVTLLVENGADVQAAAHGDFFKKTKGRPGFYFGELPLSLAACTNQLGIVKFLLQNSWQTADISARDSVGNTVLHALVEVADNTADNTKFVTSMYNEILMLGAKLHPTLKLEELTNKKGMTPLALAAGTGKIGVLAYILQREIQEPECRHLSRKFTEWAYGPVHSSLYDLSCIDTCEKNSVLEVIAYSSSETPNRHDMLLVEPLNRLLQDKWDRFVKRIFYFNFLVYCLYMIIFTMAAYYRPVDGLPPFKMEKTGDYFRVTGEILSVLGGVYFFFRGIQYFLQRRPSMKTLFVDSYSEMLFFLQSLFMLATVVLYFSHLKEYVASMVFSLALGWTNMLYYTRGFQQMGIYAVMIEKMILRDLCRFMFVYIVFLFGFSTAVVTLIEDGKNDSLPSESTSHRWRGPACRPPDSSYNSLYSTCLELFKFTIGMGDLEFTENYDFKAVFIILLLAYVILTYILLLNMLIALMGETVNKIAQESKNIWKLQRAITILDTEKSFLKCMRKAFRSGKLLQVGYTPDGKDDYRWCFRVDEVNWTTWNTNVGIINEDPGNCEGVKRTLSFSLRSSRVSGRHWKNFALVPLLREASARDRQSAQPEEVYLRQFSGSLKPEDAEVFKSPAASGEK
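TRPV1-expressing cells were cultured overnight at 35.5C and loaded with Fluo-8 calcium dye for 40 to 90 min at room temperature. After a 10 s baseline, compound was added and calcium influx was read kinetically for 3 min (ex 480/em 520 nm).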
D2 PAM: Beta-Arrestin HTS for Positive Allosteric Modulators of the Human D2 Dopamine Receptor: Potentiators; 360,000 compounds, 0.23% hits; D(2) dopamine receptor (Homo sapiens), P14416; potentiation, % (no concentration beside the values); DiscoveRx D2 beta-arrestin cells, luminescence, 90 min; 100% = 57 uM dopamine signal; active = potentiation of 50% or more; inconclusive = 30% to 50%; inactive = 30% or less;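 also: compound concentration not given in the record; tested on top of an EC20 dose of dopamine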
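PathHunter beta-arrestin assay in DiscoveRx D2 cells. Compounds were added with an EC20 of dopamine (50 nM final) for 90 min at 37 deg C. Luminescence was read 1 h after detection reagent, with 57 uM dopamine as the EC100 control.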
Menin-MLL FL inh: qHTS Assay for Inhibitors Targeting the Menin-MLL Interaction in MLL Related Leukemias: Competition With Fluorescein Labeled MLL-derived Peptide; Fluorescence polarization, fluorescein-MLL peptide displacement from menin; FP activity change, % at 61.4 µM; 290,000 tested, under 10 active; AID 1766, 2009; inconclusive = falling polarisation curve, or a change in total fluorescence; inactive = total fluorescence flat and polarisation flat or rising; no compound was filed as active; the % refers to the polarisation; negative = inhibition;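 also: % of control where 0% means no effect; inhibitors lower the polarisation; unlabelled MLL peptide was the positive control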
gsp agonist: qHTS for Agonist of gsp, the Etiologic Mutation Responsible for Fibrous Dysplasia/McCune-Albright Syndrome: qHTS; gsp mutant cells, cAMP HTRF, 30 min; control for the full effect not named in the record; Potency, µM (series often up to 76.9 µM), for inactives: at the highest dose activation (cAMP increase), actives largely listed as activators; 340,000 compounds, 0.13% hits; active = well fitted activation curve with a large enough effect; inconclusive = small, poorly fitted or top-dose-only effect, or another doubt; inactive = no such curve, though single readings can be large or run the other way; cell line not stated here;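 also: phosphodiesterase inhibitor Ro 20-1724 added with compounds to block cAMP breakdown; potency is read from the fitted curve at half-maximal effect; nearly all actives have a fitted effect of over 60% in size; about a fifth of the inactives were tested at one dose only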
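Cells in DMEM/10% FBS with G418 were pretreated with compounds in DMSO plus […] (300 uM stock) for 30 min at 37C. cAMP was measured by HTRF (cAMP-d2 plus anti-cAMP antibody-K) after 30 min at room temperature.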
Sfp PPTase inh: qHTS Assay for Inhibitors of Bacillus subtilis Sfp phosphopantetheinyl transferase (PPTase); Biochemical Sfp PPTase activity, qHTS; AID 1490, 2009; Potency, µM, for inactives: max response, negative = inhibition, hits mostly inhibitors; 4'-phosphopantetheinyl transferase ffp (Bacillus subtilis), Q9F4F7; 310,000 compounds, 3.5% hits; active = well fitted inhibition curve with a large enough effect; inconclusive = small, poorly fitted or top-dose-only effect, or another doubt; inactive = no such curve, though single readings can be large or run the other way;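 also: the enzyme is Sfp with the accession as filed and its product quenches rhodamine fluorescence; potency is read from the fitted curve at half-maximal effect; 0% = enzyme reaction without inhibitor and -100% = no enzyme wells; top concentration of the series not given in the record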
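Compounds were incubated with enzyme (final 15 nM) for 15 min at room temperature before substrate addition started the reaction. Fluorescence at 525 nm excitation, 598 nm emission was recorded immediately and after 30 minutes.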
* hit, by the source's call; ? = inconclusive; . = not tested or not shown; & = joins results of further samples; [ ] = another dose, or the depositor's remark.

SMILES	gsp antag	ClpP mod	TRPV1 potentiator	D2 PAM	Menin-MLL FL inh	gsp agonist	Sfp PPTase inh
CCC(C)N(C)C(=O)c1cc2ccccc2c(-c2ccccc2Cl)n1 (stereo not given)	-7.6%	-0.4%	-18.1	2.1	-2.8&-0.9	.	6.3%&-1.8%
COC(=O)CC(CC(=O)OC)n1cccc1	3.1%	-2.7%	.	-20.0	.	8.8%	.
COc1cc(OC)cc(C(=O)N[C@H](C(=O)NCc2cccs2)C(C)C)c1	1.1%	-1.3%	-3.5	-37.2	-1.1	7.3%[15.4 µM]	?
COc1ccccc1CNC(=O)CCNS(=O)(=O)c1cc(Br)cnc1N	-5.7%	-29.5%	2.0	1.6	.	-48.1%[inhibitor]	15.8%
COc1ccc(N2CCN(C(=O)CSc3nnc4ncccn34)CC2)cc1	8.2%	-0.9%	13.3	1.3	2.5	24.9%	?
COCCc1ccc(OCC(O)CNC(C)C)cc1 (stereo not given)	2.6%&1.6%&-0.7%	0.6%&2.3%&3.4%	13.9&4.1	-0.1&10.7&2.3	1.1&3.4&2.3	.	13.7%&13.9%
O=C(Nc1cc(Cl)ccc1Oc1ccccc1)c1ccc(F)cc1	?	-1.9%	-19.1	-11.6	10.3	-5.9%	-2.2%
Cn1c(=O)[nH]c(=O)c2c1nc(SCC(=O)O)n2Cc1ccccc1	9.7%	2.6%	10.4	-1.7	0.8	11.5%	18.0%
Cc1ccc(S(=O)(=O)N(C)c2ccc(OCC(=O)Nc3cccc(-n4cnnn4)c3C)cc2)cc1	?	-3.3%	12.3	-13.6	1.6	-0.6%	5.8%
Cc1ccc2[nH]c(=O)c(CN(CCN3CCOCC3)C(=O)Nc3ccc(F)cc3)cc2c1	4.1%	-25.0%	13.3	6.6	0.4	-54.7%[inhibitor]	4.4%
COc1ccc(-n2ncc(C(C)NS(=O)(=O)c3ccc(C(C)=O)cc3)c2C)cc1 (stereo not given)	-2.9%	-1.4%	3.6	-7.1	.	11.5%	8.3%
CN1/C(=C/C(=S)NC(=O)C2(C)CC2(Cl)Cl)C(C)(C)c2ccccc21 (stereo not given)	-14.8%	.	-14.4	-14.1	18.2	?	11.2%
Cc1ccc(Cn2ccc(NC(=O)c3cc(-c4ccccc4)on3)n2)cc1	7.6%	21.5%	3.5	3.6	0.8	-18.0%	7.2%
COc1ccc(CCNC(=O)c2ccc3c(c2)S(=O)(=O)N=C2CCCCCN23)cc1	-4.4%	-0.7%	28.4	-3.1	.	-6.7%[15.4 µM]	.
CCOc1cc(/C=N/Nc2cccc(C(=O)O)c2)ccc1OC(=O)c1ccccc1	-10.0%	.	16.8	4.2	-2.9	3.2%	1.4%
O=C(/C=C/c1ccccc1)NCC1(c2ccccc2)CCOCC1	4.0%	-1.1%	-3.7	-7.8	4.2	9.8%[15.4 µM]	18.8%
Cc1nn(-c2ccccc2)c(Cl)c1C(=O)Nc1ccc(N2CCOCC2)cc1	7.6%	-1.1%	?	-4.4	-2.6	-1.4%[15.4 µM]	13.5%
COc1ccc(CCNC(=O)c2cnc3n(c2=O)CCS3)cc1OC	7.1%	-1.4%	5.6	0.3	-0.3	0.5%	6.0%
CCOC(=O)c1c(-c2ccccc2)csc1NC(=O)/C(C#N)=C/c1ccc(O)c(OC)c1	-16.1%	28.2µM*	-3.1	-1.5	?	-24.0%	?
O=C(Cc1cccc2ccccc12)Nc1ccc(Br)cc1C(=O)O	-6.9%	-11.6%	5.2	2.2	-0.3	-2.6%	-19.6%
CCOc1cc(N2CCOCC2)c(OCC)cc1NC(=O)c1ccc2ncsc2c1	-1.6%	-3.6%	-5.8	-8.4	.	?	.
CCOC(=O)CSc1nc2cc3c(cc2cc1C#N)OCCO3	-8.9%	.	4.9	-4.2	4.5	?	15.9%
CC(Oc1ccc2ccc(=O)oc2c1)C(=O)NCCCn1ccnc1 (stereo not given)	8.5%	3.6%	-7.4	-11.2	-1.8	-35.3%	6.4%
CN(C(=O)Nc1ccc(Cl)cc1)n1cnc2ccccc2c1=O	8.0%	.	-3.6	-4.1	3.6	6.8%	26.5%
O=S(=O)(c1ccc2c(c1)oc1ccccc12)N1CCOCC1	3.3%	-1.8%	-3.4	-5.8	-0.1	-4.4%	-12.1%

Entries of single compounds, looked up by structure.
Cc1ccc(Cn2ccc(NC(=O)c3cc(-c4ccccc4)on3)n2)cc1 as listed: gsp antag = 7.6%; ClpP mod = 21.5%; TRPV1 potentiator = 3.5; D2 PAM = 3.6; Menin-MLL FL inh = 0.8; gsp agonist = -18.0%; Sfp PPTase inh = 7.2%
COc1ccc(-n2ncc(C(C)NS(=O)(=O)c3ccc(C(C)=O)cc3)c2C)cc1 (stereo not given) as listed: gsp antag = -2.9%; ClpP mod = -1.4%; TRPV1 potentiator = 3.6; D2 PAM = -7.1; Menin-MLL FL inh = .; gsp agonist = 11.5%; Sfp PPTase inh = 8.3%

(listing goes on)
SMILES	gsp antag	ClpP mod	TRPV1 potentiator	D2 PAM	Menin-MLL FL inh	gsp agonist	Sfp PPTase inh
CC(C)c1cccc(C(C)C)c1NC(=O)CNCC(O)c1ccccc1 (stereo not given)	-19.2%	-0.1%	-5.6	-3.6	-3.7	12.0%	-13.1%
CC1CCN(C(=O)C2CCN(S(=O)(=O)c3ccc(-n4cnnn4)cc3)CC2)CC1	1.0%	.	-2.5	-1.4	-0.3	14.1%[15.4 µM]	15.7%
O=C1CC(c2ccccc2)=C(c2ccccc2)C1	6.0%	.	.	-8.5	.	21.1%	.
COCCNc1nc(Cl)c(C#N)s1	3.0%	-0.7%	4.5	1.4	0.6	6.7%	17.0%
CN(C)C1(CNC(=O)c2cccc(S(=O)(=O)NCc3ccccc3)c2)CCCCC1	8.2%	-4.0%	0.3	-6.2	.	-28.0%	.
COc1cc(OC)c(NC(=O)CCNC(=O)Cn2cnc3ccccc3c2=O)cc1Cl	-1.0%	-1.8%	-11.8	-4.4	-0.7	5.4%	2.4%
CCn1c(SCC(=O)NCCc2ccc(F)cc2)nnc1-c1cccs1	1.5%	0.0%	-7.7	-33.0	0.2	-2.2%	15.1%
O=C(NCc1ccco1)c1cnn2c(C(F)(F)F)cc(-c3ccco3)nc12	5.3%	-13.7%	?	-7.8	0.9	11.9%	-10.6%
CCC12C(=Nc3c(Cl)cccc31)C[C@@H]1CCN3C(=O)CCC[C@H]2[C@H]13 (stereo not given in full)	2.5%	1.7%&0.4%	.	5.8	.	.	.
Nc1ccc2nc(-c3cccnc3)[nH]c2c1	?	1.0%	3.1	6.0	2.0	-16.9%[15.4 µM]	7.0%
COc1ccc(N(C)S(=O)(=O)c2cccc(C(=O)Nc3nc4ccccc4[nH]3)c2)cc1	-16.2%	28.2µM*	-5.7	3.6	5.3	10.6%[15.4 µM]	18.6%
CCNC1(C(N)=O)CCN(Cc2ccccc2)CC1	-1.2%	.	.	-11.9	.	-2.8%	.
CC(=O)c1c(C)c(C)c2n1CCn1c(C)ccc1-2	-7.6%	-9.2%	-3.5	-0.4	?	-19.4%	-19.2%
CC1CCCCC1NC(=O)COC(=O)c1ccc(S(=O)(=O)N2CCOCC2)cc1 (stereo not given)	7.8%	1.0%	12.2	-1.9	0.4	0.1%	13.8%
COc1cc(C(CCN2CCCC2)c2c(OC)cc(OC)c3c(C)cc(=O)oc23)cc(OC)c1OC (stereo not given)	8.7%	-18.8%	-24.1	-22.4	2.0&3.0	.	-3.5%&-0.2%
COc1ccc(N2CCN(Cc3nc(N)nc(N4CCCc5ccccc54)n3)CC2)cc1	-4.9%	-3.2%	5.5	-9.4	0.6	-4.5%	-2.5%
CCn1c(C)nc([N+](=O)[O-])c1C(=O)O	5.6%	.	0.9	0.1	0.0	23.6%[15.4 µM]	9.1%
O=C(NC1CCCCC1)c1ccc(CNc2c(N3CCOCC3)c(=O)c2=O)cc1	0.3%	-4.8%	-0.8	-4.8	2.1	-37.3%[inhibitor]	9.7%
Cc1ccc(Cl)c(OCC(=O)NCC(c2cccs2)N2CCOCC2)c1 (stereo not given)	?	.	-1.5	3.0	.	-18.5%[15.4 µM]	.
CSCC(=O)N1CCCC(CO)(Cc2ccccc2C)C1 (stereo not given)	14.6%	.	15.9	-1.2	1.4	1.0%[15.4 µM]	16.6%
CC1CCCCC12NC(=O)N(CC(=O)Nc1ccc(N3CCOCC3)cc1)C2=O (stereo not given)	16.4%	0.4%	5.0	4.7	-0.8	-9.9%	20.0%
CC(C)(C)c1ccc(Cn2cnc(-c3ccc([N+](=O)[O-])cc3)c2)cc1	-6.5%	10µM*	7.2	-2.7	5.8	-11.6%	-0.1%
Cc1ccc(NC(=O)CC(N)=S)cc1	0.7%	-4.5%	0.9	-36.1	3.6	-3.0%	?

Four compounds out of the list above, arranged by their value in gsp agonist, highest first:
compound	gsp antag	D2 PAM	Menin-MLL FL inh	gsp agonist	Sfp PPTase inh
CC(C)c1cccc(C(C)C)c1NC(=O)CNCC(O)c1ccccc1 (stereo not given)	-19.2%	-3.6	-3.7	12.0%	-13.1%
CN(C(=O)Nc1ccc(Cl)cc1)n1cnc2ccccc2c1=O	8.0%	-4.1	3.6	6.8%	26.5%
CCOc1cc(/C=N/Nc2cccc(C(=O)O)c2)ccc1OC(=O)c1ccccc1	-10.0%	4.2	-2.9	3.2%	1.4%
Cc1ccc(S(=O)(=O)N(C)c2ccc(OCC(=O)Nc3cccc(-n4cnnn4)c3C)cc2)cc1	?	-13.6	1.6	-0.6%	5.8%
